Compound activity as filed in PubChem BioAssay.
DAGLB inh – blocks human DAGLB lipase activity; hit rate 0.059% among 340,000; inhibition, % at 5.17 µM; AID 504411; HEK293T DAGLB membrane lysate, EnzChek fluorogenic substrate; Q8NCG7; in the data active = inhibition above about 34%;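 note: 0% = enzyme with vehicle and 100% = wells lacking enzyme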
HTR5A ag – HTR5A agonism, opioid heterodimer counter-screen; P47898; HTR5A agonist assay, luminescence, cell-based; activation, % at 9.3 µM; hit rate 0.61% among 340,000; in the data active = activation mostly above about 9.5%, no sharp cut-off; inactive = mostly below about 7.6%;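 note: 0% = cells with vehicle only and 100% = reference agonist; strong numbers were not always called active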
V-ATPase pH – regulators of yeast V-ATPase proton transport; S. cerevisiae, pHLuorin cytosolic pH fluorescence; response, % at 10 µM; hit rate 0.37% among 350,000; AID 504577; in the data active = response mostly above about 7.3%, no sharp cut-off; inactive = mostly below about 5.4%; note: actives read high; inactives centre near 0; some compounds called inactive have numbers as strong as hits; reference of the scale not given here
Pemphigus Ab inh – human desmoglein-3 autoantibody binding inhibition; P32926; DSG3-coupled beads, scFv-anti-DSG3-GFP binding, flow cytometry; active compounds read low; binding (percent of control), % at 10 µM; hit rate 0.48% among 310,000;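 active = binding more than 3 SD below its plate's average and above zero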;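 note: hits lower antibody fragment binding to DSG3; some compounds called inactive have numbers as strong as hits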
Target sequence (P32926 whole entry, looked up, the tested form may be a part): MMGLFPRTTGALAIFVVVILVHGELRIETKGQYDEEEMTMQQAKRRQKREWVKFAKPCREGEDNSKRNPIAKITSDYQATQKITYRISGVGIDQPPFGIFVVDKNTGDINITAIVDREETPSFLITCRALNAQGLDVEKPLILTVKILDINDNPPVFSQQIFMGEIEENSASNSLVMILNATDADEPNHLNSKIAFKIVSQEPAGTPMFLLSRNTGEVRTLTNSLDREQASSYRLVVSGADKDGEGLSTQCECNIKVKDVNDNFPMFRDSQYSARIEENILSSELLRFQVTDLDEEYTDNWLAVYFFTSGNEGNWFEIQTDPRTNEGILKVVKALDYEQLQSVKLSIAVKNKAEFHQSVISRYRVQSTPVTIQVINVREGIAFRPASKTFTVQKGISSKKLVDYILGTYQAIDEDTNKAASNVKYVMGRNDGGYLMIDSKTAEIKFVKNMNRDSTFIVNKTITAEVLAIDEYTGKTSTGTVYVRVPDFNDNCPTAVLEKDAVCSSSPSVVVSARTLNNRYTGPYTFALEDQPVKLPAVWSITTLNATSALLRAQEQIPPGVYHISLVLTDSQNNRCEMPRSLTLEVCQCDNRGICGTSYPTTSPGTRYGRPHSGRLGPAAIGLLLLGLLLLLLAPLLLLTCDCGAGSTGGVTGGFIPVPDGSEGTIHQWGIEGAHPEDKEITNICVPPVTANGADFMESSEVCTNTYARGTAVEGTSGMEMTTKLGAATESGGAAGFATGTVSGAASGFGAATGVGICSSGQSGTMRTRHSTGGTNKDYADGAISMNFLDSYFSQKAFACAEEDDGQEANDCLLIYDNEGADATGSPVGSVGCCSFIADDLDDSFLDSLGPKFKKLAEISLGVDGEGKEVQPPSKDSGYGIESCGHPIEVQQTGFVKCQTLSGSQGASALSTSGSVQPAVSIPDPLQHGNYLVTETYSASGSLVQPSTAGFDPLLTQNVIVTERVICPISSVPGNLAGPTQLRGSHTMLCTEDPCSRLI
HTR5A inv ag – HTR5A inverse agonism, opioid heterodimer counter-screen. HTR5A cell line, luminescence. AID 504634. inhibition, % at 9.3 µM. P47898. hit rate 0.083% among 340,000; in the data active = inhibition mostly above about 23%, no sharp cut-off; inactive = mostly below about 18%;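 note: 0% = cells with DMSO and 100% = no-cell wells with DMSO; some compounds called inactive have numbers as strong as hits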
* hit, by the source's call; & = joins results of further samples. An excerpt. The share of hits here may be higher or lower than overall.

[1] c1ccc2c(c1)Sc1ccccc1N2CC1CN2CCC1CC2 (configuration not stated)
[2] N[C@@H]1C[C@H]1c1ccccc1
[3] Nc1ccc([N+](=O)[O-])cc1
[4] COc1ccc(C[C@H]2NC[C@H](O)[C@H]2OC(C)=O)cc1
[5] CCC1C2CC3C4N(C)c5ccccc5C45CC(C2C5O)N3[C@@H]1O (some centres not stated)

| entry no. | 1 | 2 | 3 | 4 | 5 |
| --- | --- | --- | --- | --- | --- |
| Pemphigus Ab inh | 104 | 97 | 102 | 97 | 96 |
| HTR5A inv ag | 8 | 6 | 1 | 11 | -19 |
| DAGLB inh | 4 | -1 | 0 | 3 | -1 |
| HTR5A ag | -2 | 6 | 0 | -3 | 5 |
| V-ATPase pH | -5 | 4 | 1 | -2 | 1 |

Rewritten tab-delimited: 4 of the compounds above.
#	structure	Pemphigus Ab inh	HTR5A inv ag	DAGLB inh	HTR5A ag	V-ATPase pH
1	c1ccc2c(c1)Sc1ccccc1N2CC1CN2CCC1CC2 (configuration not stated)	104	8	4	-2	-5
2	N[C@@H]1C[C@H]1c1ccccc1	97	6	-1	6	4
5	CCC1C2CC3C4N(C)c5ccccc5C45CC(C2C5O)N3[C@@H]1O (some centres not stated)	96	-19	-1	5	1
3	Nc1ccc([N+](=O)[O-])cc1	102	1	0	0	1

New compounds follow.
[6] CC(C)=CCN1CC[C@@]2(C)c3cc(O)ccc3CC1C2C (some centres not stated)
[7] CN1CCC23c4c5ccc(O)c4O[C@@H]2[C@H](O)C=CC3C1C5 (some centres not stated)
[8] O=[N+]([O-])c1cc([As](=O)(O)O)ccc1O
[9] CCCCCCCCCCCCCCCC[n+]1ccccc1

| entry no. | 6 | 7 | 8 | 9 |
| --- | --- | --- | --- | --- |
| Pemphigus Ab inh | 102 | 101 | 113 | 140 |
| HTR5A inv ag | 16 | 5 | -12 | -21&-16 |
| DAGLB inh | -1 | -2 | 1 | 6&5 |
| HTR5A ag | -7 | -2 | 1 | 6&4 |
| V-ATPase pH | -4 | 0 | 10 | 7&1 |

As entered above:
compound 4 in V-ATPase pH → -2
compound 2 in V-ATPase pH → 4
compound 8 in HTR5A ag → 1
compound 7 in Pemphigus Ab inh → 101
